FGF22 binding: binders of human FGF22 protein, primary screen, FGF22 synaptogenesis inhibitor project, biophysical, thermal shift, single point; 340,000 tested, 1.5% active; recombinant FGF22 thermal shift, SYPRO orange fluorescence; percent of sucrose octasulfate shift, DMSO zero; calls only at 9.99 µM; AID 651658, 2012;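 active means melting point raised past a set limit in the mean and every replicate; three in four hits are not shown here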
Target sequence (Q9HCT0 whole entry, looked up): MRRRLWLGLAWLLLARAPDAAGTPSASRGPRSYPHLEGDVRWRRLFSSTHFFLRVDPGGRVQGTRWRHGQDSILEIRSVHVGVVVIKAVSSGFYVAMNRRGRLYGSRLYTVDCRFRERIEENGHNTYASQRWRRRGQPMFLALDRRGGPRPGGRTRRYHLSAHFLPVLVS
Calls only. Not all compounds are listed (hit frequency here may not be typical).

For O=C(Nc1cc(F)ccc1F)N1C[C@@H]2[C@H](c3ccccc31)[C@@H](CO)N2C(=O)c1ccccc1 the results were FGF22 binding inactive.
`COc1ccccc1-c1cn(CC[C@@H]2CC[C@@H](NC(=O)c3ccccc3F)[C@H](CO)O2)nn1` gave FGF22 binding inactive.
For COc1ccc(S(=O)(=O)Nc2ccc3c(c2)CC(=O)N([C@H](C)CO)C[C@H](C)[C@H](CN(C)Cc2ccc(C(=O)Nc4ccccc4N)cc2)O3)cc1 the results were FGF22 binding inactive.
COCC#Cc1cnc2c(c1)C(=O)N([C@@H](C)CO)C[C@H](C)[C@@H](CN(C)C(=O)CN1CCOCC1)O2 was read as FGF22 binding inactive.
Screening C[C@@H]1CN([C@H](C)CO)C(=O)c2cc(NC(=O)NC3CCCCC3)ccc2O[C@@H]1CN(C)S(=O)(=O)c1ccc(Cl)cc1 returned FGF22 binding inactive.
Screening COc1ccc(NC(=O)Nc2ccc3c(c2)C(=O)N([C@@H](C)CO)C[C@H](C)[C@H](CN(C)Cc2ccc(Oc4ccccc4)cc2)O3)cc1 returned FGF22 binding inactive.
`CCCNC(=O)N1CCC2(CC1)CN(C(=O)COC)[C@@H](CO)c1[nH]c3cc(OC)ccc3c12` gave FGF22 binding inactive.
For Cc1ccccc1NC(=O)Nc1ccc2c(c1)C(=O)N(C)[C@H]1CC[C@H](CC(=O)NCC3CC3)O[C@@H]1CO2 the results were FGF22 binding inactive.
Screening CC(C)CC#Cc1ccc2c(c1)O[C@H](CN(C)Cc1ccccc1F)[C@H](C)CN([C@H](C)CO)S2(=O)=O returned FGF22 binding inactive.
`COc1cccc(-c2cn(CC[C@@H]3CC[C@H](NC(=O)CC4CC4)[C@@H](CO)O3)nn2)c1` gave FGF22 binding inactive.
For CN(C)C(=O)C[C@@H]1C=C[C@@H](NC(=O)c2ccc(F)cc2)[C@@H](CO)O1 the results were FGF22 binding inactive.
Screening CCC(=O)N1C[C@H](C)[C@@H](OC)CN(C)C(=O)c2cc(NS(=O)(=O)CC)ccc2OC[C@H]1C returned FGF22 binding inactive.
For Cn1cnc(CCNC(=O)C[C@@H]2CC[C@H]3[C@@H](COC[C@H](O)CN3C(=O)C3CCCC3)O2)c1 the results were FGF22 binding inactive.
COc1ccc(NC(=O)Nc2ccc3c(c2)CC(=O)N([C@H](C)CO)C[C@@H](C)[C@H](CN(C)S(=O)(=O)c2ccc(C)cc2)O3)cc1 was read as FGF22 binding inactive.
For C[C@H](CO)N1C[C@H](C)[C@@H](CN(C)S(=O)(=O)c2ccccc2)OCCCC[C@H](C)Oc2ccc(NC(=O)Nc3ccc4c(c3)OCO4)cc2C1=O the results were FGF22 binding inactive.
O=C(Cc1ccccc1)N1C[C@H]2[C@@H](c3ccccc31)[C@@H](CO)N2C(=O)c1ccc(F)cc1 was read as FGF22 binding inactive.
Screening C[C@@H]1CN([C@H](C)CO)C(=O)c2cc(NS(=O)(=O)c3ccccc3)ccc2O[C@H]1CN(C)C(=O)Nc1ccc(F)cc1 returned FGF22 binding inactive.
`COc1ccccc1CN1C[C@@H](C)[C@H](OC)CN(C)C(=O)c2cc(NC(C)=O)ccc2OC[C@@H]1C` gave FGF22 binding inactive.
`CC(C)c1cn(CC[C@@H]2CC[C@@H](NC(=O)C3CC3)[C@H](CO)O2)nn1` gave FGF22 binding inactive.
O=C(NCc1ccc2c(c1)OCO2)[C@H]1[C@H](CO)[C@H]2Cn3c(cccc3=O)[C@@H]1N2Cc1cncnc1 was read as FGF22 binding inactive.

Random excerpt: 2 entries already listed.
O=C(Cc1ccccc1)N1C[C@H]2[C@@H](c3ccccc31)[C@@H](CO)N2C(=O)c1ccc(F)cc1 was read as FGF22 binding inactive.
For Cn1cnc(CCNC(=O)C[C@@H]2CC[C@H]3[C@@H](COC[C@H](O)CN3C(=O)C3CCCC3)O2)c1 the results were FGF22 binding inactive.

Ordered by number of heavy atoms (smallest number first): part of the list above.
`CC(C)c1cn(CC[C@@H]2CC[C@@H](NC(=O)C3CC3)[C@H](CO)O2)nn1` gave FGF22 binding inactive.
`COc1ccccc1CN1C[C@@H](C)[C@H](OC)CN(C)C(=O)c2cc(NC(C)=O)ccc2OC[C@@H]1C` gave FGF22 binding inactive.
Screening C[C@@H]1CN([C@H](C)CO)C(=O)c2cc(NS(=O)(=O)c3ccccc3)ccc2O[C@H]1CN(C)C(=O)Nc1ccc(F)cc1 returned FGF22 binding inactive.
COc1ccc(NC(=O)Nc2ccc3c(c2)CC(=O)N([C@H](C)CO)C[C@@H](C)[C@H](CN(C)S(=O)(=O)c2ccc(C)cc2)O3)cc1 was read as FGF22 binding inactive.
For C[C@H](CO)N1C[C@H](C)[C@@H](CN(C)S(=O)(=O)c2ccccc2)OCCCC[C@H](C)Oc2ccc(NC(=O)Nc3ccc4c(c3)OCO4)cc2C1=O the results were FGF22 binding inactive.

(listing goes on)
O=C(NCc1ccccc1)[C@H]1CCCN1C(=O)[C@H]1CCCN1C(=O)N1CCOCC1 was read as FGF22 binding inactive.
Screening C[C@@H]1CN([C@@H](C)CO)C(=O)c2cc(NC(=O)NC3CCCCC3)ccc2O[C@@H](C)CCCCO[C@H]1CN(C)C(=O)Cc1ccccc1 returned FGF22 binding inactive.
For CO[C@@H]1CN(C)C(=O)c2cc(NC(=O)C3CCCCC3)ccc2OC[C@@H](C)NC[C@@H]1C the results were FGF22 binding inactive.
For CS(=O)(=O)N1[C@@H]2c3ccc(-c4ccc(F)cc4)c(=O)n3C[C@H]1[C@H](CO)[C@H]2C(=O)NCC1CC1 the results were FGF22 binding inactive.
For COc1cccc(S(=O)(=O)N2C[C@@H](O)COC[C@H]3O[C@@H](CC(=O)NCCCN4CCOCC4)CC[C@@H]32)c1 the results were FGF22 binding inactive.
For C[C@@H]1CN([C@H](C)CO)C(=O)c2cc(NS(=O)(=O)c3cn(C)cn3)ccc2O[C@@H](C)CCCCO[C@H]1CN(C)S(=O)(=O)c1ccc(F)cc1 the results were FGF22 binding inactive.
Screening Cc1cccc(S(=O)(=O)N2CCCCN3[C@@H](CO)[C@@H](c4ccc(C#CC5CC5)cc4)[C@@H]3C2)c1 returned FGF22 binding inactive.
Screening N#C[C@H]1N[C@@H](CO)[C@@H]1c1ccc(C2=CCCC2)cc1 returned FGF22 binding inactive.
C[C@@H]1CN([C@@H](C)CO)C(=O)c2cc(NC(=O)CCCN(C)C)ccc2O[C@@H](C)CCCCO[C@@H]1CN(C)S(=O)(=O)c1cn(C)cn1 was read as FGF22 binding inactive.
`COC(=O)C[C@@H]1CC[C@@H]2[C@@H](COc3ccc(NC(=O)Nc4cccc(C#N)c4)cc3C(=O)N2C)O1` gave FGF22 binding inactive.
For O=C(Nc1ccc2c(c1)[C@H]1C[C@@H](CC(=O)N3CCOCC3)O[C@H](CO)[C@H]1O2)C1CCC1 the results were FGF22 binding inactive.
Screening CO[C@@H]1CN(C)C(=O)c2cc(NC(=O)NC(C)C)ccc2OC[C@H](C)N(C(=O)C2CCC2)C[C@H]1C returned FGF22 binding inactive.
Cc1noc(C)c1NC(=O)N(C)C[C@@H]1OCCCC[C@H](C)Oc2ccc(NC(=O)C3CCCCC3)cc2C(=O)N([C@@H](C)CO)C[C@H]1C was read as FGF22 binding inactive.
CCNC(=O)C[C@@H]1CC[C@H]2[C@@H](COC[C@@H](O)CN2Cc2ccccc2F)O1 was read as FGF22 binding inactive.
`OCC(CCc1c[nH]c2ccccc12)c1c[nH]c2ccccc12` (stereo unspecified) gave FGF22 binding inactive.
For CN(C)C(=O)c1cccc(-c2ccc([C@@H]3[C@@H](C#N)N(C(=O)C4CCCCC4)[C@H]3CO)cc2)c1 the results were FGF22 binding inactive.
`COc1ccc2c3c([nH]c2c1)[C@@H](CO)N(C(=O)C1CCCCC1)CC31CN(S(C)(=O)=O)C1` gave FGF22 binding inactive.
Screening Cc1ccc(S(=O)(=O)N(C)C[C@@H]2Oc3c(NC(=O)NC4CCCCC4)cccc3C(=O)N([C@H](C)CO)C[C@@H]2C)cc1 returned FGF22 binding inactive.
For C[C@@H]1CN([C@H](C)CO)C(=O)c2cc(NS(C)(=O)=O)ccc2O[C@@H](C)CCCCO[C@H]1CN(C)CC1CC1 the results were FGF22 binding inactive.
For C[C@H](CO)N1C[C@H](C)[C@H](CN(C)C(=O)Nc2ccc(F)cc2)Oc2ncc(C#CC(C)(C)O)cc2C1=O the results were FGF22 binding inactive.
`Cc1noc(C)c1S(=O)(=O)Nc1ccc2c(c1)C(=O)N([C@@H](C)CO)C[C@H](C)[C@@H](CN(C)S(=O)(=O)c1ccc(Cl)cc1)O2` gave FGF22 binding inactive.
For COc1ccc(CNC(=O)C[C@@H]2CC[C@H](NC(=O)c3ccc4c(c3)OCO4)[C@H](CO)O2)cc1 the results were FGF22 binding inactive.
`CCCNC(=O)N1C[C@H](O)COC[C@H]2O[C@H](CC(=O)N[C@H]3CCN(Cc4ccccc4)C3)CC[C@@H]21` gave FGF22 binding inactive.
For C[C@H]1CN([C@@H](C)CO)C(=O)Cc2cc(NC(=O)CCC(F)(F)F)ccc2O[C@H]1CN(C)C(=O)Nc1ccccc1 the results were FGF22 binding inactive.
O=C(c1ccc(F)cc1)N1CC(=O)N2[C@H](C1)[C@@H](c1ccc(C#CCC3CCCC3)cc1)[C@@H]2CO was read as FGF22 binding inactive.
For C[C@@H]1CN([C@H](C)CO)C(=O)c2cc(C3=CCCC3)cnc2O[C@@H]1CN(C)S(C)(=O)=O the results were FGF22 binding inactive.
Screening CO[C@H]1CN(C)C(=O)c2ccc(NC(=O)C3CCCC3)cc2OC[C@@H](C)N(CC2CC2)C[C@@H]1C returned FGF22 binding inactive.
`Cc1ccc(S(=O)(=O)Nc2ccc3c(c2)C(=O)N([C@@H](C)CO)C[C@@H](C)[C@H](CN(C)S(=O)(=O)c2c(C)noc2C)OCCCC[C@@H](C)O3)cc1` gave FGF22 binding inactive.
Screening C[C@@H]1CN([C@@H](C)CO)C(=O)c2cc(C3=CCCC3)cnc2O[C@H]1CN(C)Cc1ccccc1C(=O)O returned FGF22 binding inactive.
For C[C@@H]1CCCCO[C@H](CN(C)Cc2ccncc2)[C@H](C)CN([C@H](C)CO)C(=O)c2cc(N(C)C)ccc2O1 the results were FGF22 binding inactive.
`CCCNC(=O)N(C)C[C@H]1Oc2ncc(C#CCC(C)C)cc2C(=O)N([C@@H](C)CO)C[C@H]1C` gave FGF22 binding inactive.
`CN1c2ccc(-c3cccc(F)c3)cc2[C@@H]2[C@@H](CCN2C(=O)C2CCOCC2)[C@@H]1CO` gave FGF22 binding inactive.
Screening C[C@H]1CN([C@@H](C)CO)C(=O)Cc2cc(NC(=O)CCCCCC(=O)Nc3ccccc3N)ccc2O[C@H]1CN(C)S(C)(=O)=O returned FGF22 binding inactive.
Screening COCC(=O)Nc1ccc2c(c1)C(=O)N(C)C[C@@H](OC)[C@@H](C)CN(Cc1ccccn1)[C@H](C)CO2 returned FGF22 binding inactive.
C[C@H]1CN([C@@H](C)CO)C(=O)Cc2cc(NC(=O)Nc3ccc(C(F)(F)F)cc3)ccc2O[C@H]1CN(C)S(=O)(=O)c1cn(C)cn1 was read as FGF22 binding inactive.
CO[C@@H]1CN(C)C(=O)c2ccc(NC(=O)Nc3ccc(F)cc3)cc2OC[C@H](C)NC[C@H]1C was read as FGF22 binding inactive.
Screening O=C(C[C@@H]1CC[C@H]2[C@@H](COC[C@H](O)CN2C(=O)Nc2ccc(F)cc2)O1)NCCc1ccccc1 returned FGF22 binding inactive.
Screening CCC(=O)Nc1ccc2c(c1)C(=O)N(C)[C@H]1CC[C@@H](CC(=O)NCCOC)O[C@H]1CO2 returned FGF22 binding inactive.
C[C@H]1CN([C@@H](C)CO)C(=O)Cc2cc(NC(=O)Nc3cccc4ccccc34)ccc2O[C@H]1CN(C)Cc1ccc(C(F)(F)F)cc1 was read as FGF22 binding inactive.
`O=C(C[C@@H]1CC[C@H]2[C@@H](COC[C@@H](O)CN2Cc2cccc(Cl)c2)O1)NCC1CCCCC1` gave FGF22 binding inactive.
CCC(=O)N1[C@@H]2Cn3c(cccc3=O)[C@H]1[C@@H](C(=O)NCc1ccc(F)cc1)[C@@H]2CO was read as FGF22 binding inactive.
For CCCNC(=O)C[C@@H]1CC[C@@H]2[C@@H](COc3ccc(NC(=O)Nc4ccccc4F)cc3C(=O)N2C)O1 the results were FGF22 binding inactive.
Screening C[C@H]1CN([C@@H](C)CO)C(=O)c2cccc(NC(=O)Nc3ccccc3)c2O[C@@H]1CN(C)C(=O)Nc1ccc(F)cc1 returned FGF22 binding inactive.
`CCOC(=O)C1CSCCS(=O)(=O)N1Cc1ccccc1C` (stereo unspecified) gave FGF22 binding inactive.
O=C(Cc1cccnc1)N1CC(=O)N2[C@H](CO)[C@@H](c3ccc(C#CC4CCCCC4)cc3)[C@@H]2C1 was read as FGF22 binding inactive.
C[C@@H]1CN([C@@H](C)CO)C(=O)c2cc(NC(=O)Nc3ccc4c(c3)OCO4)ccc2O[C@@H]1CN(C)C(=O)Nc1ccccc1 was read as FGF22 binding inactive.
Screening C[C@@H]1CN([C@@H](C)CO)C(=O)c2cc(NS(C)(=O)=O)ccc2O[C@@H]1CN(C)S(C)(=O)=O returned FGF22 binding inactive.
For CCNC(=O)C[C@@H]1CC[C@H]2[C@@H](COc3ccc(NC(=O)Nc4c(C)noc4C)cc3C(=O)N2C)O1 the results were FGF22 binding inactive.
C[C@@H]1CN([C@H](C)CO)C(=O)CCCn2nncc2CO[C@@H]1CN(C)Cc1ccc(Oc2ccccc2)cc1 was read as FGF22 binding inactive.
For COCC(=O)N1C[C@@H]2[C@H](c3ccccc31)[C@@H](CO)N2C(=O)C1CCCCC1 the results were FGF22 binding inactive.
For C[C@@H]1CN([C@H](C)CO)C(=O)c2cc(NC(=O)Nc3ccc4c(c3)OCO4)ccc2O[C@H]1CN(C)C the results were FGF22 binding inactive.
C[C@H](CO)N1C[C@H](C)[C@@H](CN(C)C(=O)CN(C)C)Oc2cc(C#CC(C)(C)O)ccc2S1(=O)=O was read as FGF22 binding inactive.

Filtered by structure: those above with a Cl atom.
Screening C[C@@H]1CN([C@H](C)CO)C(=O)c2cc(NC(=O)NC3CCCCC3)ccc2O[C@@H]1CN(C)S(=O)(=O)c1ccc(Cl)cc1 returned FGF22 binding inactive.
`Cc1noc(C)c1S(=O)(=O)Nc1ccc2c(c1)C(=O)N([C@@H](C)CO)C[C@H](C)[C@@H](CN(C)S(=O)(=O)c1ccc(Cl)cc1)O2` gave FGF22 binding inactive.
`O=C(C[C@@H]1CC[C@H]2[C@@H](COC[C@@H](O)CN2Cc2cccc(Cl)c2)O1)NCC1CCCCC1` gave FGF22 binding inactive.
